# Rce1 inh: yeast Rce1p protease inhibitors, primary screen, biochemical, fluorescence, cell-free homogeneous | CAAX prenyl protease 2 (Saccharomyces cerevisiae (strain ATCC 204508 / S288c)), Q03530 | yeast membranes, quenched prenylated peptide cleavage fluorescence | calls only | hit rate 0.27% among 290,000;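 active means fall in fluorescence gain of 50% or more versus controls, with final raw signal at or below 3038400; inconclusive means same 50% fall but final raw signal above 3038400; inactive means fall in fluorescence gain under 50%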;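 further: plate controls were neutral control wells for no effect and wells lacking membranes for full effect; tested at 10 µM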
# UUG fidelity: modulators of yeast start codon fidelity, primary screen, whole organism, S. cerevisiae, single point, plate reader; hit rate 0.13% among 350,000; S. cerevisiae UUG-firefly luciferase reporter, luminescence/redox ratio; activity score, % at 18.7 µM;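 active means replicate mean at a twofold rise or more, about +100% in these data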;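 further: firefly luciferase made from a UUG start codon reports start codon fidelity; reporter light over untreated wells divided by growth signal over untreated wells; some hits fall short of that in this replicate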
# Env fusion inh: inhibitors of HIV-1 Env-driven cell-cell fusion, primary screen, HeLa-JRFL effector, CEM21 target cells, luciferase; inhibition, % at 12.3 µM; hit rate 1.1% among 360,000; AID 651610, 2012;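 active means mean replicate inhibition score of at least 50 and every replicate individually at or above 50; inconclusive means only one of the two criteria met; inactive means mean below 50 and not all replicates reaching 50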;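 further: 0% = plate neutral controls and 100% = maraviroc near 300 nM; one replicate is shown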
# eIF4H inh: human eIF4H binding inhibitors, primary screen, translation initiation inhibitor project, biochemical, uHTS, fluorescence polarization | eIF4H fluorescence polarization binding assay | inhibition, % at 35 µM | AID 2012, 2009 | hit rate 0.94% among 290,000 | Eukaryotic translation initiation factor 4H (Homo sapiens), Q15056;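 active means 50% or more with normal probe brightness, or confirmed in later tests; inconclusive means above 50% with abnormal brightness, or retests that disagree; inactive means below 50% or failed in later tests; about a fifth of its hits are not listed in these tables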;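 further: calls also rest on retests at 20 µM and on dose response follow-up; 0% = protein and probe with vehicle and 100% = probe without protein; strong numbers were not always called active; many hits fall short of the cut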
# MT1-MMP act inh: blockers of MT1-MMP proenzyme processing, primary screen, HT1080 RFP-PRO-GFP cells, GFP/RFP fluorescence; GFP/RFP ratio fluorescence, overnight; percent of plate control window, DMSO zero; Matrix metalloproteinase-14 (Homo sapiens), P50281; GFP/RFP ratio change, % at 20 µM; hit rate 0.061% among 360,000;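 active means GFP/RFP ratio change of at least 30% with cell ATP level not reduced by more than half and red fluorescence within 50% of control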; further: strong numbers were not always called active
#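 Assay system: HT1080 cells carrying an RFP-PRO-GFP reporter | Dosing: Single dose of 20 µM compound, 1% DMSO final | Incubation: Cells overnight before dosing, compound overnight, 37 °C, 5% CO2 | Evaluation: GFP/RFP fluorescence ratio | Control set: DMSO and RFP-L50D-GFP cell wells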
# PABP polyA inh: PABP poly(A) RNA binding inhibitors, primary screen, biochemical, fluorescence polarization, uHTS; Polyadenylate-binding protein 1 (Homo sapiens), P11940; inhibition, % at 35 µM; hit rate 1% among 290,000;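 active means 50% or more with normal probe brightness, or confirmed in later tests; inconclusive means above 50% with abnormal brightness, or retests that disagree; inactive means below 50% or failed in later tests; about a fifth of its hits are not listed in these tables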;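 further: calls also rest on retests at 20 µM and on dose response follow-up; controls were probe without protein and protein plus probe with vehicle; some compounds called inactive have numbers as strong as hits; many hits fall short of the cut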
# Target sequence (P11940 whole entry, looked up): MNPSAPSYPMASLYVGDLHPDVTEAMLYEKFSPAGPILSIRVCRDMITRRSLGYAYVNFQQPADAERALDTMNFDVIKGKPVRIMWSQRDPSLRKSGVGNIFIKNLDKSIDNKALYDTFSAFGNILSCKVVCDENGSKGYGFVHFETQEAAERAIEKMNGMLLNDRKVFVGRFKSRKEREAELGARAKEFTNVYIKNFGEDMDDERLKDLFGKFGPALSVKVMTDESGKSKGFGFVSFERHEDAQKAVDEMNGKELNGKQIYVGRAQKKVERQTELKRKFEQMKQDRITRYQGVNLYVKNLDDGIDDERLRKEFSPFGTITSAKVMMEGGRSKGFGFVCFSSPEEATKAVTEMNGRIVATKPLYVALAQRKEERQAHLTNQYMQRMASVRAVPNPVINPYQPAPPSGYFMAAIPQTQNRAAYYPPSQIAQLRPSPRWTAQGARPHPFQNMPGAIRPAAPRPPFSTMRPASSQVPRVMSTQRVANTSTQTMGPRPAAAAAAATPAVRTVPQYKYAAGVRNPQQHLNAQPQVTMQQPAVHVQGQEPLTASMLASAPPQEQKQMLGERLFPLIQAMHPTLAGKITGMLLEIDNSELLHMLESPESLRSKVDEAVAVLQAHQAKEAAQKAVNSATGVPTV
# CSC inhib: cancer stem cell viability inhibitors, primary screen, luminescence; hit rate 1.1% among 300,000; cancer stem cell-like cells viability; AID 2717, 2010; inhibition, % at 7.5 µM;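 active means mean at 75% or more and at least half the replicates too; inconclusive means mean and replicates disagree; tested in HMLE shEcad cells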;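 further: 0% = median of negative and 100% = median of positive control wells; the first replicate is given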
# eIF4H inh retest: also measured in eIF4H inh; calls as there; inhibition, %; compound at 20 µM; confirmation average;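 mean of two retest wells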
# PABP polyA inh retest: recorded beside PABP polyA inh, whose call it bears; inhibition, %; compound at 20 µM; confirmation repeats;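 mean of two retest wells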
# MT1-MMP act inh RFP: recorded beside MT1-MMP act inh, whose call it bears; RFP signal change, %; measured here: RFP expression control read;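 0 = vehicle wells; hits needed this value within 50% of zero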
# * marks the source's active call; other numbers are inactive results; i = inactive; ? = inconclusive; . = not tested or not shown; & = joins results of further samples. These rows are one share of the data; the hit share may differ from the screen's.
SMILES,Rce1 inh,UUG fidelity,Env fusion inh,eIF4H inh,MT1-MMP act inh,MT1-MMP act inh RFP,PABP polyA inh,CSC inhib,others
CC12CCCCC1NS(=O)(=O)OC2 (stereo not given),i,-8,-7,3,5,1,8,-12,
CCCCOC(=O)CSc1n[nH]c(=O)[nH]c1=O,i,-10,-34,-7,5,4,-10,7,
O=C(O)Cc1ccc(NC(=O)Nc2ccc3c(c2)OCO3)cc1,i,-12,-10,3,4,3,3,-12,
O=C(Nc1nc2cc3c(cc2s1)OCCO3)c1ccc(N2C(=O)CCC2=O)cc1,i,.,-8,-2,1,1,-11,-6,
CSc1nc(N)c(C#N)c(-c2ccc(Cl)cc2)c1C#N,i,-10,.,-5,3,-3,-7,46,
CCOc1ccc(C2C(C#N)=C(N)N(c3sc4c(c3C#N)CCCC4)C3=C2C(=O)CCC3)cc1 (stereo not given),i,.,-43,?,-4,29,30*,6,PABP polyA inh retest=92*
Cc1cccc(NC(=O)CSc2nnc(-c3cnccn3)n2Cc2ccco2)c1,i,-9,5,-2,3,3,4,-15,
N#Cc1ccc(/C=C(\C(=O)C(=O)O)c2ccc3ccccc3n2)cc1,i,-18,-96,7,-28,0,6,-8,
CCOc1ccccc1NC(=S)NCc1ccco1,i,-25,-38,-5,-6,0,4,-23,
CC(=O)NCCNC(=O)C1CCC(CNc2nc(=S)[nH]c3ccccc23)CC1 (stereo not given),i,-8,-20,3,2,3,8,-12,
NC(=O)C1=C[C@H](c2csc3ccccc23)C[C@H](OCCCCO)O1,i,-3,.,-6,3,6,9,8,
CCOC(=O)C(C(=O)N(C)C)c1ncc(C(F)(F)F)cc1Cl (stereo not given),i,-11,-29,-10,2,4,0,-10,
C/C(=N\NC(=O)C1COc2ccccc2O1)c1ccc(C)o1 (stereo not given),i,.,-48,-7,4,-1,4,-12,
Cn1nnc(NC(=O)c2ccc(Br)o2)n1,i,-11,6,-4,-2,2,-15,-2,
CN(CC(=O)Nc1ccc(Cl)cc1)C(=O)c1cccc(S(=O)(=O)NCc2ccccc2)c1,i,-20,?,-3,2,-3,-9,.,
O=C(Cc1cccs1)Nc1ccc(F)cc1,i,13,-15,-9,-1,-1,0,-6,
O=C(CCn1nnc2ccccc21)N1CCC(O)(c2cccc(F)c2)CC1,i,-14,21,-13,-12,-14,-1,-17,
O=C(OCCN1CCCCC1)c1ccccc1Br,i,-14,5,-6,-1,8,-7,9,
Cc1noc(C)c1NC(=O)Nc1ccc2c(c1)C(=O)N([C@H](C)CO)C[C@H](C)[C@@H](CN(C)S(C)(=O)=O)O2,.,-3&-15,-4,.,2,5,.,.,
Cc1cc(NC(=O)CSc2nc3sc(C)c(C)c3c(=O)n2C2CCCC2)no1,i,-8,.,-3,0,-1,-2,11,
COc1cccc(-c2n[nH]c(=S)n2Cc2ccco2)c1OC,i,-21,.,-3,-1,-4,-2,.,
COc1ccc(CCNC(=O)C2CCCN(S(=O)(=O)c3ccc(F)cc3)C2)cc1 (stereo not given),i,-1,8,-13,2,1,3,-6,
O=C(Cn1c(C(=O)NCc2ccco2)cc2sccc21)c1ccccc1,i,-29,.,-9,4,-3,-1,-5,
CNc1nc(N)c([N+](=O)[O-])c(Nc2ccccc2OC)n1,i,-17,-11,-8,-10,-10,15,.,
Cc1ccc(S(=O)(=O)N2CCOCC2)cc1C(=O)Nc1ccccn1,i,7,.,8,0,1,-1,-5,

# Later entries.
SMILES,Rce1 inh,UUG fidelity,Env fusion inh,eIF4H inh,MT1-MMP act inh,MT1-MMP act inh RFP,PABP polyA inh,CSC inhib,others
COC(=O)c1[nH]c2ccccc2c1NC(=O)/C=C/c1ccc2c(c1)OCO2,i,12,1,-12,4,4,120*,-1,eIF4H inh retest=48;PABP polyA inh retest=104*
O=C(NNC(=O)c1cccs1)c1ccc(Cl)c(Cl)c1,i,.,6,-6,.,.,-11,-8,
CCn1cc(C(=O)NCc2ccncc2)c(=O)c2cc(F)c(N3CCN(C(=O)c4ccco4)CC3)cc21,i,8,11,0,-1,-5,1,25,
Cc1ccc(NC(=O)CN2CCN(C)CC2)cc1Br,i,-16,7,-2,-2,1,6,.,
O=C(/C=C/c1ccc(Cl)cc1)N(Cc1ccccc1)c1ccccn1,i,.,20,2,-4,-5,-1,.,
CCC1(C)Cc2c(sc3nc(NC)n(C)c(=O)c23)CO1 (stereo not given),i,-10,.,-18,0,-1,22,9,
Cc1ccc(C)c(N(CC(=O)Nc2cc(Cl)ccc2Oc2ccccc2)S(C)(=O)=O)c1,i,2,.,-2,-22,-22,8,16,
O=C(OC1CCN(c2ccc([N+](=O)[O-])cc2)CC1)c1ccccc1,i,-18,-60,-10,5,-1,3,-5,
C=CCN1C(=O)CN=C1Nc1ccccc1,i,-20,-63,-2,-2,0,-3,9,
Cn1c(=O)c2c(-c3ccccc3)n(N3CCOCC3)cc2n(C)c1=O,i,-4,.,88,5,4,6,-1,eIF4H inh retest=-3;PABP polyA inh retest=4
CC1=C(C(=O)OCc2ccccc2)C(c2ccccc2OS(=O)(=O)c2ccc([N+](=O)[O-])cc2)NC(=O)N1CCCC(=O)O (stereo not given),i,-12,37,.,-4,0,.,4,
C=CCn1c(SCC(=O)Nc2ccc3c(c2)OCO3)nnc1-c1ccccc1O,i,-23,-45,1,2,-6,13,-9,
Cc1ccc(-c2csc3ncnc(NCCC(=O)O)c23)cc1,.,-29,1,-5,3,0,23,-9,
CC(=O)N1CCc2cc(N=NC3=C(O)CC(C)(C)CC3=O)ccc21,i,.,-17,101*,-1,3,6.5*,-7,eIF4H inh retest=94*;PABP polyA inh retest=95*
Cc1cccc(NC(=O)CC2(CC(=O)O)CCCC2)c1,i,-7,14,-12,5,7,2,-4,
Cc1cc(C)nc(CCNC(=O)CC2C(=O)NCCN2Cc2ccccc2)n1 (stereo not given),i,-8,0,18,-2,9,13,1,
COc1cc(NC(=O)c2cc(-c3ccco3)on2)cc(OC)c1OC,i,-17,17,-17,1,4,4,1,
Cn1c(=O)c2c(nc(SCCCC#N)n2Cc2ccccc2F)n(C)c1=O,i,-5,2,12,-1,-1,10,.,
CCN1CCN(c2ccc(S(=O)(=O)N3CCOCC3)cc2NC(=O)c2ccccc2OC(F)F)CC1,i,.,-12,.,1,6,.,19,
Cn1nccc1C(=O)N1CCCC(C(=O)c2ccc(C(F)(F)F)cc2)C1 (stereo not given),i,-10,-3,-16,5,-3,-2,2,
CCOc1ccc(N(C)S(=O)(=O)c2cc(-c3cc(C)no3)ccc2CC)cc1,i,-13,47,-10,-8,-27,8,28,
CCN(CC)c1ccc(S(=O)(=O)N2CCOCC2)cc1NC(=O)COC(=O)c1cccnc1SC,i,-16,-2,.,-2,-3,.,4,
CCOC(=O)N1CCN(C(=O)c2oc3ccc(S(=O)(=O)N4CC(C)CC(C)C4)cc3c2C)CC1 (stereo not given),i,-17,62*,-10,-4,-14,-5,0,
COC(=O)C(C)C1Sc2ccccc2NC1=O (stereo not given),i,-11,.,9,-2,-3,2,-6,
CN1CCc2c(sc(NC(=O)c3cc(Cl)sc3Cl)c2C(N)=O)C1,i,-18,.,-15,-20,1,2,0,
COc1ccc(NC(=O)N/C=C/c2ccco2)cc1,i,-10,17,30,-8,0,0,-4,
COc1cc2c(cc1OC)CN(C(=O)Cc1ccc(OC)c(S(=O)(=O)N3CCOCC3)c1)CC2,i,-10,-1,-4,-3,1,6,-12,

# Of the compounds above, these contain fluorine:
SMILES,Rce1 inh,UUG fidelity,Env fusion inh,eIF4H inh,MT1-MMP act inh,MT1-MMP act inh RFP,PABP polyA inh,CSC inhib,others
CCOC(=O)C(C(=O)N(C)C)c1ncc(C(F)(F)F)cc1Cl (stereo not given),i,-11,-29,-10,2,4,0,-10,
O=C(Cc1cccs1)Nc1ccc(F)cc1,i,13,-15,-9,-1,-1,0,-6,
O=C(CCn1nnc2ccccc21)N1CCC(O)(c2cccc(F)c2)CC1,i,-14,21,-13,-12,-14,-1,-17,
COc1ccc(CCNC(=O)C2CCCN(S(=O)(=O)c3ccc(F)cc3)C2)cc1 (stereo not given),i,-1,8,-13,2,1,3,-6,
CCn1cc(C(=O)NCc2ccncc2)c(=O)c2cc(F)c(N3CCN(C(=O)c4ccco4)CC3)cc21,i,8,11,0,-1,-5,1,25,
Cn1c(=O)c2c(nc(SCCCC#N)n2Cc2ccccc2F)n(C)c1=O,i,-5,2,12,-1,-1,10,.,
CCN1CCN(c2ccc(S(=O)(=O)N3CCOCC3)cc2NC(=O)c2ccccc2OC(F)F)CC1,i,.,-12,.,1,6,.,19,
Cn1nccc1C(=O)N1CCCC(C(=O)c2ccc(C(F)(F)F)cc2)C1 (stereo not given),i,-10,-3,-16,5,-3,-2,2,

# Screens: PubChem BioAssay, several laboratories
